TRPML1 blocker = blocks the human TRPML1 channel. Q9GZU1. hit rate 0.02% among 390,000. AID 624415. TRPML1-inducible cells, Ca2+ dye fluorescence, FDSS; hits give low values; inhibition of EC80 agonist-evoked calcium signal. activity change, negative = inhibition, % (concentration not given with the values); in the data active means activity change below about -50%; inconclusive means about -30% to -50%; inactive means above about -30%;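 note: stimulus is agonist 54-4 at its EC80 concentration; % is set by controls: 0 for no effect and ±100 for the full control effect; compound concentration not given in the record; the text of the record puts the active cut at -80%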
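Tet-induced TRPML1-DL cells loaded with Ca8 no-wash calcium dye were read kinetically on FDSS. Compound addition was followed by EC80 agonist 54-4 (4 uM final); inhibition was read over 110 s.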
D2 agonist = agonists of human D2 dopamine receptor (beta-arrestin); DiscoveRx PathHunter D2 beta-arrestin, luminescence, 90 min; 100% = 57 uM dopamine signal; activation, % (concentration not given with the values); hit rate 0.084% among 360,000; in the data active = activation above about 40%; inconclusive = about 15% to 40%; inactive = below about 15%; note: compound concentration not given in the record; the text of the record calls up to 30% inactive
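DiscoveRx PathHunter D2 beta-arrestin cells (2,100/well) attached overnight, then compound-stimulated 90 min at 37 C in HBSS/10 mM HEPES/0.1% Tween-20 buffer; beta-galactosidase complementation read by luminescence after 1 h at ambient temperature. Dopamine 57 uM final (EC100) as control.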
CtBP-E1A inh = inhibitors of CtBP/E1A interaction. AlphaScreen GST-E1A/His-CtBP binding, 1536-well; hits give low values; control for the full effect not named in the record. activity change, % (concentration not given with the values). hit rate 0.49% among 340,000. AID 651724; in the data active means activity change below about -65%; inconclusive means about -30% to -65%; inactive means above about -30%; note: % is set by controls: 0 for no effect and ±100 for the full control effect
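Steps: dispense buffer (Tris pH 8.0, NaCl 300 mM, TCEP 1 mM, BSA, Tween 20); add 5X protein mix (GST-E1A, His-CtBP, 125 nM each); pin 23 nL compound; 2 h at 37 °C, dark; add 5X beads (50 ug/mL); 1 h; read.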
PINK1 modulator = modulators of PINK1 expression. hit rate 0.2% among 410,000. AID 624263. Potency, µM (highest dose often 76.6 µM), without a hit: at the top dose activation (PINK1 increase), actives largely listed as activators. PINK1 immunofluorescence, high-content cytometry, 24 h; active = well fitted activation curve with a large enough effect; inconclusive = small, poorly fitted or top-dose-only effect; inactive = flat fitted curve, though single readings scatter; cell line not stated here;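 note: potency is the fitted concentration of half-maximal effect; % of control where 0% means no effect; nearly all actives have a fitted effect of over 65% in size; a mitochondrial uncoupler was the plate control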
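PINK1 protein level read as immunofluorescence by microplate cytometer in a fixed, stained stable cell line after 24 h exposure to five compound concentrations, with CCCP as control.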
TRPML1 agonist = agonists of human TRPML1 channel; Q9GZU1; TRPML1-expressing cells, Ca2+ dye fluorescence, FDSS; host cell line not named in the record; reference of the full effect not given here; activation, % (no concentration beside the values); hit rate 0.12% among 410,000; in the data active = activation above about 50%; inconclusive = about 30% to 50%; inactive = below about 30%; note: 0% is about no effect; the text of the record puts the active cut at 80%
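TRPML1-DL cells, Tet-induced overnight (~16 h, 37 degrees C), loaded 45-90 min at room temperature with Ca8 no-wash calcium dye plus quencher. FDSS fluorescence: 10 s baseline, compound pin-transfer, 110 s agonist read, then EC80 54-4 (4uM final) and 110 s antagonist read.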
Six1-Eya2 inh = Six1/Eya2 interaction inhibition; Q15475+O00167; AlphaScreen GST-Six1/His-Eya2 binding, biochemical; hits give low values; control for the full effect not named in the record; activity change, % (no concentration beside the values); hit rate 0.56% among 360,000; AID 651725; in the data active = activity change below about -65%; inconclusive = about -30% to -65%; inactive = above about -30%; note: % is set by controls: 0 for no effect and ±100 for the full control effect; compound concentration not given in the record
Target sequence (O00167 whole entry, looked up): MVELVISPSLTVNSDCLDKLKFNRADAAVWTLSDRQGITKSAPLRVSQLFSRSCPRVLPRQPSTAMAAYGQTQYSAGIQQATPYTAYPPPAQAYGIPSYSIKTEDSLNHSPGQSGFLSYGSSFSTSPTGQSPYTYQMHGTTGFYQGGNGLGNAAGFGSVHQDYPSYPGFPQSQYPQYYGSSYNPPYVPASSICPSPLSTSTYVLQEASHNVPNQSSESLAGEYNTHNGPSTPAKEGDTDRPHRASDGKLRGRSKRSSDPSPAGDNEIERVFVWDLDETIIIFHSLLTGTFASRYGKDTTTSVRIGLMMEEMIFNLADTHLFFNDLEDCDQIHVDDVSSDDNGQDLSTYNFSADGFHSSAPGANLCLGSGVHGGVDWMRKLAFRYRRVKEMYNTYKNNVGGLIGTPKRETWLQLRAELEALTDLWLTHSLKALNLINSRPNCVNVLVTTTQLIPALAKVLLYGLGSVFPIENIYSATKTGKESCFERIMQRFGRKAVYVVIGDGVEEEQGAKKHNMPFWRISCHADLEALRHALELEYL
Target sequence (Q15475 whole entry, looked up): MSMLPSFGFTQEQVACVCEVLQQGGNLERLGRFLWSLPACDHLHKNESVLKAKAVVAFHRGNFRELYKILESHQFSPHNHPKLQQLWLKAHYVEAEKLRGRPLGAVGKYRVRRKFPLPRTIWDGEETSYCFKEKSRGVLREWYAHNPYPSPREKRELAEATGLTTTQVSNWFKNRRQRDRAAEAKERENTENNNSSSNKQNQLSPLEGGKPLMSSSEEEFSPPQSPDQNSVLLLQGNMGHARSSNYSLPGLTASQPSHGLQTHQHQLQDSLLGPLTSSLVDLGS
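Compounds are tested against tagged Six1 and Eya2 proteins bridged by glutathione donor and nickel acceptor beads; after a one-hour incubation at 37 °C without light, AlphaScreen emission is recorded.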
The depositor's hits bear a star; ? = inconclusive; . = no result given; [ ] = dose if it differs, or a comment.

compound,TRPML1 blocker,D2 agonist,CtBP-E1A inh,PINK1 modulator,TRPML1 agonist,Six1-Eya2 inh
COc1ccc(NC(=O)CSc2nccn2Cc2ccco2)cc1,-6,-2.4,5,15%,0.4,-2
NC(=O)c1c(NC(=O)CN2CCOCC2)sc2c1CCC2,41,-1.1,-3,-3.7%,-0.4,-12
CCCCc1c(O)nc(N2CCN(Cc3ccccc3)CC2)[nH]c1=O,3,0.0,-3,0.3%[38.3 µM],-0.5,0
CN(Cc1ccccc1)C(=O)CN(C)S(=O)(=O)c1ccc(F)cc1,-19,-5.4,2,0.0%,-0.5,0
CCNC(=S)Nc1ccc(Cl)cc1,-8,1.5,1,1.9%,-0.2,-1
Cc1ccc2c(c1)C1OCCC1C1N2C(=O)C2C(C(=O)O)C3C=CC21O3 (stereo unspecified),8,-3.0,-3,.,-0.3,-10
CCCOC(=O)c1cccc(Nc2nc(C(=O)OCC)nc3ccccc23)c1,14,.,.,10%,0.2,.
Cn1nnnc1SCC(=O)Nc1ccccc1N1CCOCC1,4,0.3,3,0.2%,-0.5,1
Cc1cc(C)cc(NC(=O)Cn2nnc(C(=O)NCc3ccc(F)cc3)c2N)c1,15,0.7,-7,0.9%,0.8,2
O=C(CSc1nnc2ccccn12)Nc1ccccc1[N+](=O)[O-],-7,0.0,0,0.5%,-0.5,-2
CC(=O)c1ccc(N2CCN(C(=O)c3cccc(Oc4ccccc4)c3)CC2)cc1,1,7.3,-5,0.3%,3.2,-11
OCc1cc(Br)ccc1OCc1nc2ccccc2s1,-1,1.3,-5,0.2%,0.8,0
C=CCOn1c(=O)c(C)[n+]([O-])c2ccccc21,6,2.1,4,0.0%,-0.3,-5
Cc1ccc(C)c(OCCNc2ccc([N+](=O)[O-])cn2)c1,3,-2.2,.,2.2%,0.4,-2
CCN(CC)c1ccc(/C=N/N(c2ccccc2)c2ccccc2)c(O)c1,0,-1.5,19,7.1%,-0.4,?
O=C1C(C=NCc2ccccn2)=C(O)c2ccccc21,-17,2.1,?,-4.2%[38.3 µM],0.4,?
O=c1ccn(CCc2c[nH]c3ccccc23)c2c1CCCC2,12,2.1,-11,0.1%,1.2,-9
Cc1[nH]n(-c2ccccc2)c(=O)c1-c1ccccc1,1,-3.4,23,3.5%,-1.3,16
O=C(NCCOc1ccccc1)c1ccc2c(c1)OCO2,-4,1.0,8,13%[38.3 µM],-0.1,4
O=C(C1=C(O)/C(=C/c2ccc(O)cc2)CCC1)C(F)(F)F,0,-7.5,-2,6.8%,-0.3,3
CCC(C)Oc1ccccc1C1CC(=O)NC2=C1C(=O)CCC2 (stereo unspecified),21,-0.5,-1,12%,-0.7,-2
CCCCc1ccc(Nc2ncnc3nc[nH]c23)cc1,-14,2.5,0,7.1%,-0.5,1
Cc1ccc(P(=O)(OCCN2CCOCC2)C(C)(C)C)o1 (stereo unspecified),3,-1.6,26,-0.6%[38.3 µM],2.3,3
Cc1csc(NC(=O)CSc2ncnc3ccccc23)n1,-2,3.0,-3,-1.1%,0.5,-14
CCC(C)n1c(S(=O)(=O)O)nc2ccccc21 (stereo unspecified),5,-0.9,6,8.1%[38.3 µM],-0.4,4
CC(=O)Nc1nc(-c2ccc3c(c2)CC(C)N3C(=O)C2CC2)c(C)s1 (stereo unspecified),8,-2.2,0,-1.3%,1.0,4
Cc1ccc(S(=O)(=O)N2CCCOC2)cc1,9,-3.3,3,.,0.9,7
COC(=O)CC1C(=O)NCCN1C(=O)NC1CCCCC1 (stereo unspecified),18,-0.8,0,-1.9%,3.5,-2
O=C(CSc1nnnn1-c1ccccc1)Nc1ccc(Cl)cc1,6,-2.5,7,-1.8%,-1.3,4
CC1(C(=O)NCCC#N)CCN1C(=O)C1(c2ccccc2)CCCC1 (stereo unspecified),7,-3.6,2,-0.1%,-0.3,8
CC1CN(CC(=O)NCc2ccc(Cl)cc2)CC(C)O1 (stereo unspecified),-5,-0.7,14,-1.4%,0.0,30
COCCNC(=O)COCc1cc(-c2ccc3c(c2)OCO3)on1,.,-4.4,6,0.2%,.,8
CCC(=O)N1c2ccccc2CC1C(=O)NCc1cccc(C)c1 (stereo unspecified),18,.,.,-1.3%,0.2,.
CC(C)C(NC(=O)CCNC(=O)c1ccc([N+](=O)[O-])cc1)c1nc2ccccc2[nH]1 (stereo unspecified),1,-3.8,.,-0.8%,-0.8,-6
Cc1ccc(S(=O)(=O)N2CCCCC2)cc1C(=O)OC(C)C(=O)NC1CCCCC1C (stereo unspecified),20,-6.2,8,?,0.3,-1
CN(CC(=O)Nc1ccc(F)cc1)C(=O)c1cccc(NS(=O)(=O)c2ccccc2)c1,-15,-4.3,1,0.4%,-0.6,10
CCc1cc2c(=O)n(Cc3ccccc3)c(SC3CCOC3=O)nc2s1 (stereo unspecified),9,-0.4,2,-0.4%,0.7,-8
COC(=O)[C@@]12CCCCN1[C@H](c1ccc(-c3ccc4c(c3)OCO4)cc1)[C@H]1C(=O)N(C)C(=O)[C@H]12,29,-2.2,-2,-0.4%,0.3,-11
CCCCC1S/C(=N/N=C/c2cccs2)NC1=O (stereo unspecified),4,-2.5,-9,1.8%,1.9,-9
CCN(CC)C(=O)CSC1=N/C(=C/c2ccco2)C(=O)N1c1ccc(OC)c(Cl)c1,23,-4.8,-2,1.1%,2.0,-12
CCOC(=O)C1=C[C@@H](C(C)(C)C)N(S(=O)(=O)c2ccc(OC)cc2)[C@H]1c1ccccc1,-9,-3.6,6,0.4%,3.1,2
CCN(CC)CCCNC(=O)c1sc2nc(-c3ccc(F)cc3)cn2c1C,14,-3.2,-8,-28%[38.3 µM],-0.1,-6
CCOC(=O)C(=O)C1=C(N2CCOCC2)/C(=C\c2cccc([N+](=O)[O-])c2)CC1,-19,-2.1,3,-0.5%,0.4,-1
CCOCCOC(=O)c1ccc(-n2cnc(C)n2)nc1,-6,-3.8,.,1.1%,0.8,-2
O=C(COC(=O)c1ccc(S(=O)(=O)Nc2ccccc2)cc1)NCCN1C(=O)CSC1=O,12,-1.7,5,-4.3%,-0.8,-1
O=C(CSc1ccccc1F)NC(=O)c1ccc(Cl)cc1,-13,0.1,9,0.9%,-0.1,3
Cc1ccc(CSc2nnc(C(F)(F)F)n2Cc2ccc(F)cc2)cc1,43,-2.1,14,18%[38.3 µM],1.0,25
Cc1ccc(S(=O)(=O)Nc2ccc(F)c(S(=O)(=O)N3CCOCC3)c2)cc1,9,4.1,4,3.4%,-0.6,0
O=C(COC(=O)c1cc(S(=O)(=O)N2CCCCC2)ccc1N1CCOCC1)NC1CCCCC1,-2,-1.4,1,0.9%,-1.0,-9
O=C1COc2ccc(C(=O)COC(=O)c3cc(S(=O)(=O)NCc4ccccc4)ccc3O)cc2N1,5,5.3,5,7.5%,-0.8,2

Following part:
compound,TRPML1 blocker,D2 agonist,CtBP-E1A inh,PINK1 modulator,TRPML1 agonist,Six1-Eya2 inh
Cc1noc(C)c1NC(=O)Nc1cccc2c1O[C@H](CN(C)S(C)(=O)=O)[C@@H](C)CN([C@H](C)CO)C2=O,-10,-2.0,8,0.0%,0.0,1
CC(=O)Nc1ccc(C=C(C(C)=O)C(C)=O)cc1,-12,-6.8,0,6.1%,0.0,-3
Cc1ccccc1NC(=O)Cc1nc(COC(=O)CCOc2ccccc2)cs1,0,-3.6,14,4.5%,2.3,-1
COc1ccc(N2CCN(c3ncnc4c3nc3n4CCCCC3)CC2)cc1,-10,.,.,-1.2%,-0.7,.
Cc1ccc(-c2nnc(C3CCN(S(=O)(=O)c4ccc(C)c(C)c4)CC3)o2)cc1,0,.,.,2.0%,-1.1,.
COc1cc(CO)cc(Br)c1OCC(=O)N1CCCCC1,-3,-4.5,-2,7.3%[38.3 µM],0.8,0
Cc1ccc(CN(Cc2ccco2)C(=O)COc2cccc(C)c2C)o1,2,.,.,-0.3%,3.2,.
C/C(=N/NC(=O)Cc1cc(=O)[nH][nH]1)c1ccc([N+](=O)[O-])cc1,2,-4.2,-6,4.2%,0.3,-4
CCN(CC)S(=O)(=O)c1ccc(N2CCN(C)CC2)c(NC(=O)c2cc(=O)c3ccccc3o2)c1,-4,-2.1,1,13%,0.2,9
CC(C)=N/N=C1/NC(=O)C(c2ccccc2)S1 (stereo unspecified),6,-3.9,-2,1.0%,0.2,-18
COc1ccc(C(NC=O)c2cc(OC)c(OC)cc2Br)cc1OC (stereo unspecified),2,-2.9,3,-0.1%,-0.3,4
O=C(NCCCNc1ccc(C(F)(F)F)cc1[N+](=O)[O-])c1cc(F)c(F)cc1Cl,-13,-0.7,-12,1.8%,1.5,-22
Cc1c(C(=O)N(Cc2ccncc2)CC2CCCO2)oc2c(F)cccc12 (stereo unspecified),-2,-0.9,1,-0.5%,-0.2,2
CCC(C)NC(=O)CCSc1nc(-c2ccc3c(c2)OCO3)cc(C(F)(F)F)n1 (stereo unspecified),-4,.,.,0.6%,0.0,.
CCCC(C)(C)C(=O)N1CCC1(C)C(=O)NS(=O)(=O)c1ccc(Br)cc1 (stereo unspecified),.,-3.8,1,-0.1%,-0.3,8
O=C(NCCO)/C(=C/c1ccc2c(c1)OCO2)NC(=O)c1ccc(Br)cc1,1,3.2,-10,0.8%,-0.5,-1
O=C(CSC1=NCCS1)N1CCCCCC1,-2,-0.6,-2,0.5%,0.5,-3
O=C1OC(c2cccs2)Sc2ccccc21 (stereo unspecified),.,-3.2,1,-0.6%,-1.1,6
Cc1cccc(N(CC(=O)O)CC(=O)O)c1,5,-2.7,0,1.5%,-0.1,0
COc1ccc(C2(CNC(C)=O)CCOCC2)cc1OC,-6,-5.4,-3,-0.2%,-0.6,11
O=C(O)c1cc(=O)c2cccc(O)c2[nH]1,11,.,.,0.0%,2.9,.
CN(c1ccccc1C(=O)Nc1ccc(S(=O)(=O)N2CCOCC2)cc1)S(C)(=O)=O,13,1.3,13,-1.1%,0.2,6
CCOC(=O)C1=C(C)NC(=O)CC1c1ccccc1OC (stereo unspecified),9,1.6,0,-0.1%,-0.2,1
Cc1ccc2cc(COC(=O)c3ccncc3)c(=O)[nH]c2c1,4,-2.0,0,-0.2%,-0.2,1
